# MLL AF4-AF9 inh: inhibitors of human MLL-AF4/AF9 interaction. AlphaScreen, biotin-AF4 peptide binding to FLAG-AF9. 0.47% of 350,000 active. P42568. inhibition, % at 10 µM. AID 651704;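 active means every replicate reaching a set inhibition limit, whatever the replicate mean, cut at about 25% in these data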;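 further: 0% = plate neutral control median and 100% = total signal loss; the record names both 10 and 1 µM as test concentration; the first replicate is given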
# Target sequence (P42568 whole entry, looked up): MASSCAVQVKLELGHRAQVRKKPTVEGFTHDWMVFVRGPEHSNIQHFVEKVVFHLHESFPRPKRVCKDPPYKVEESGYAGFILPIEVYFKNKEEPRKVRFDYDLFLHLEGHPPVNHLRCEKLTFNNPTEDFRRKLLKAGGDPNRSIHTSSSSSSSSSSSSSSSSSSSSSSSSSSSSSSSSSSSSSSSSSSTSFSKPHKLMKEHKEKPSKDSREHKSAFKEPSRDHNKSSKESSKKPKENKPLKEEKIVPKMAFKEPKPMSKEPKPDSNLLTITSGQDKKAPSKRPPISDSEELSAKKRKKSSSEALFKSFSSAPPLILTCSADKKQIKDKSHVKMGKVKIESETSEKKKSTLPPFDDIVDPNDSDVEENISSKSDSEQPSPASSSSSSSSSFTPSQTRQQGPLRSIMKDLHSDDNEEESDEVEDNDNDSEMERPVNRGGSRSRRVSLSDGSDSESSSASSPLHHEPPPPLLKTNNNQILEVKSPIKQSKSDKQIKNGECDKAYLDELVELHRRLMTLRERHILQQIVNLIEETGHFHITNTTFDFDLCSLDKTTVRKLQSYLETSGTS
# An asterisk follows results filed as active. Some of the compounds tested; rates above refer to the full screens.
SMILES,MLL AF4-AF9 inh
COc1ccc(S(=O)(=O)N(C)C[C@@H]2Oc3c(NC(=O)C4CC4)cccc3C(=O)N([C@@H](C)CO)C[C@@H]2C)cc1,-0.6
C[C@@H]1CCCCO[C@H](CN(C)Cc2ccncc2)[C@H](C)CN([C@@H](C)CO)C(=O)c2cc(N(C)C)ccc2O1,2.6
COC(=O)C[C@H]1C[C@@H]2c3cc(NC(=O)Cc4ccncc4)ccc3O[C@@H]2[C@@H](CO)O1,1.8
CCOC(=O)C1CCN(C(=O)c2ccc3c(=O)n4nc(Nc5ccccc5CC)sc4nc3c2)CC1,-4.7
CC(C)(C)[S@](=O)N1Cc2cc(C(=O)NCc3ccncc3)nc(-c3cccc(-c4ccncc4)c3)c2[C@@H]1CCO,4.3
Cc1noc(C)c1NC(=O)Nc1ccc2c(c1)CC(=O)N([C@H](C)CO)C[C@@H](C)[C@@H](CN(C)Cc1ccccc1)O2,-0.9
COc1ccccc1CNC(=O)COC(=O)Cn1cnc2c1c(=O)n(C)c(=O)n2C,0.3
C[C@H](CO)N1C[C@H](C)[C@@H](CN(C)Cc2ccc(C(=O)O)cc2)Oc2ccc(NC(=O)CCC(F)(F)F)cc2CC1=O,-3.7
C[C@@H]1CN([C@@H](C)CO)C(=O)c2cc(NC(=O)Cc3ccccc3)ccc2O[C@@H](C)CCCCO[C@@H]1CN(C)Cc1ccc(C(=O)O)cc1,-2.2
O=C(C[C@H]1C=C[C@H](NC(=O)CN2CCOCC2)[C@H](CO)O1)NC1CCC1,-2.0
COc1ccccc1-c1cc(NC(C)=O)c2ncc(-c3cccc(C(F)(F)F)c3)n2c1,1.5
CO[C@H]1CC[C@H]2CCOc3ccc(C#N)cc3C(=O)N(C)CC3(CCCCC3)CC(=O)N(C)C[C@H]1O2,-2.1
CCCNC(=O)Nc1ccc2c(c1)OC[C@@H](C)N(CCC(F)(F)F)C[C@H](C)[C@@H](OC)CN(C)C2=O,-0.2
CC(=O)N1[C@H](CO)[C@@H](c2ccccc2)[C@@H]1CN(CC(C)C)C(=O)c1ccccn1,-1.3
c1cc(-c2ccc(C3[C@H]4CNC[C@@H]3N4CC3CCCC3)cc2)ccn1 (stereo not given in full),42.4*
O=C(Nc1ccc(-c2nc3ccccc3[nH]2)cc1)C1CCCN(Cc2ccn[nH]2)C1 (stereo not given),2.9
CCNC(=O)C[C@@H]1CC[C@H]2[C@@H](COc3ccc(NC(=O)NC(C)C)cc3C(=O)N2C)O1,0.7
CO[C@H](C(=O)N(C)C[C@@H]1OCc2ccccc2-c2ccccc2C(=O)N([C@H](C)CO)C[C@H]1C)c1ccccc1,-4.2
CN1C(=O)c2cc(NC(=O)c3ccc(F)c(F)c3)ccc2OC[C@H]2O[C@@H](CC(=O)N3CCCCC3)CC[C@@H]21,-0.3
CCCNC(=O)C[C@@H]1C[C@H]2c3cc(NC(=O)Nc4ccccc4F)ccc3O[C@H]2[C@@H](CO)O1,-11.3
C/C=C/c1ccc2c(c1)O[C@H](CN(C)Cc1ccccc1)[C@H](C)CN([C@H](C)CO)S2(=O)=O,13.7
COc1ccc(NC(=O)Nc2ccc3c(c2)CC(=O)N([C@@H](C)CO)C[C@@H](C)[C@H](CN(C)Cc2ccncc2)O3)cc1,7.2
C[C@@H](NC(=O)C[C@H]1CC[C@@H](NC(=O)Nc2ccc3c(c2)OCO3)[C@@H](CO)O1)c1ccccc1,0.9
CCCc1c(-c2cccc(F)c2)ncn1CCc1ccccc1OC,6.8
CNC[C@@H]1Oc2ccc(NS(=O)(=O)c3ccc(OC)cc3)cc2CC(=O)N([C@@H](C)CO)C[C@H]1C,-4.3
CC(=O)N(C)C[C@H]1Oc2cc(-c3ccccc3F)ccc2S(=O)(=O)N([C@H](C)CO)C[C@@H]1C,0.8
CCc1nc2c(OCCC3CCCCC3)cccn2c1N(C)C(=O)c1ccco1,6.8
O=C(NCc1ccc(F)cc1)c1cc(C2CCCN(C(=O)c3ccc4c(c3)CCO4)C2)on1 (stereo not given),1.8
COc1ccc(C(O)c2nc(-c3ccc(N(C)C)cc3)cs2)cc1 (stereo not given),8.9
C[C@H]1CN([C@@H](C)CO)C(=O)c2cc(NC(=O)Nc3ccc(C(F)(F)F)cc3)ccc2O[C@@H]1CN(C)C(=O)Nc1ccccc1,-0.8
COCCNC(=O)C[C@H]1C[C@@H]2c3cc(N(C)C)ccc3O[C@@H]2[C@H](CO)O1,-4.6
O=C(Nc1ccccc1)N[C@H]1CC[C@H](CCNC(=O)c2ccccc2F)O[C@@H]1CO,1.1
CC(C)NC(=O)N1[C@H](C#N)[C@@H](c2ccc(C#CC3CCCC3)cc2)[C@@H]1CO,-17.9
Cn1c(=O)c2cc(NC(=S)NC3CCCCC3)ccc2n1C/C=C/c1ccccc1,7.0
O=C(Nc1ccccc1)[C@H]1[C@H](CO)[C@H]2Cn3c(cccc3=O)[C@@H]1N2Cc1ccncc1,-1.7
CN1C(=O)[C@@]2(O[C@H]3C=CC=CN3C3=C2C(=O)CCC3)c2cc([N+](=O)[O-])ccc21,-1.2
O=C(NCc1ccccc1)[C@@H]1[C@@H](CO)[C@@H]2Cn3c(cccc3=O)[C@H]1N2Cc1cccnc1,2.2
COc1ccccc1-c1cnc2c(c1)C(=O)N([C@@H](C)CO)C[C@@H](C)[C@H](CN(C)C(=O)c1ccccc1)O2,-1.4
C[C@H](CO)N1C[C@H](C)[C@@H](CN(C)C(=O)CN(C)C)Oc2cc(Br)ccc2S1(=O)=O,-2.7
CN(C)CC(=O)N1[C@@H]2c3ccc(-c4cccnc4)c(=O)n3C[C@H]1[C@H](CO)[C@H]2C(=O)NC1CCC1,1.9
O=C(C[C@@H]1C[C@@H]2c3cc(NC(=O)CC4CC4)ccc3O[C@@H]2[C@H](CO)O1)NCCN1CCCCC1,-3.0
O=C(NC1Cc2ccccc2C1)[C@H]1[C@H](CO)[C@H]2Cn3c(cccc3=O)[C@H]2N1C(=O)c1ccccn1,-1.5
CN1CCN(C(=O)C[C@@H]2CC[C@@H]3[C@H](COC[C@@H](O)CN3Cc3cccc(-c4ccncc4)c3)O2)CC1,-0.1
COc1ccc(CN(C)C[C@H]2OCCCC[C@@H](C)Oc3ccc(NC(=O)Nc4c(C)noc4C)cc3C(=O)N([C@H](C)CO)C[C@H]2C)cc1,-0.3
Cc1noc(C)c1NC(=O)N(C)C[C@H]1OCCCC[C@@H](C)Oc2ccc(NC(=O)CCC(F)(F)F)cc2C(=O)N([C@@H](C)CO)C[C@H]1C,0.2
CN1CCCCN2[C@H](CO)[C@H](c3ccc(C#CC4(O)CCCC4)cc3)[C@H]2C1,1.9
C[C@@H]1CN([C@@H](C)CO)C(=O)Cc2cc(NC(=O)Cc3ccccc3)ccc2O[C@H]1CN(C)C(=O)NC1CCCCC1,-1.8
NC(=O)c1cccc(-c2ccnc3c2CC(C(=O)NCc2ccc(F)c(F)c2)O3)c1 (stereo not given),0.4

# 6 of these compounds in a different format.
canonical_smiles	MLL AF4-AF9 inh
Cc1noc(C)c1NC(=O)N(C)C[C@H]1OCCCC[C@@H](C)Oc2ccc(NC(=O)CCC(F)(F)F)cc2C(=O)N([C@@H](C)CO)C[C@H]1C	0.2
CN1CCCCN2[C@H](CO)[C@H](c3ccc(C#CC4(O)CCCC4)cc3)[C@H]2C1	1.9
O=C(NCc1ccccc1)[C@@H]1[C@@H](CO)[C@@H]2Cn3c(cccc3=O)[C@H]1N2Cc1cccnc1	2.2
COc1ccccc1-c1cnc2c(c1)C(=O)N([C@@H](C)CO)C[C@@H](C)[C@H](CN(C)C(=O)c1ccccc1)O2	-1.4
O=C(NC1Cc2ccccc2C1)[C@H]1[C@H](CO)[C@H]2Cn3c(cccc3=O)[C@H]2N1C(=O)c1ccccn1	-1.5
C[C@H](CO)N1C[C@H](C)[C@@H](CN(C)C(=O)CN(C)C)Oc2cc(Br)ccc2S1(=O)=O	-2.7

# The results go on.
SMILES,MLL AF4-AF9 inh
O=S1(=O)c2cc(Cl)ccc2N2CC[C@H](C2)N1Cc1ccc(Cl)c(Cl)c1,-2.9
O=C(C[C@H]1C[C@H]2c3cc(NC(=O)C4CCOCC4)ccc3O[C@H]2[C@@H](CO)O1)NC1CCCCC1,-1.1
C[C@H](O)C#Cc1ccc2c(c1)O[C@H](CN(C)Cc1cccnc1)[C@@H](C)CN([C@H](C)CO)S2(=O)=O,0.8
CC(C)NC(=O)N(C)C[C@@H]1Oc2ccc(NC(=O)C3CCCCC3)cc2C(=O)N([C@H](C)CO)C[C@H]1C,-1.4
O=C(C[C@@H]1CC[C@H]2[C@@H](COC[C@@H](O)CN2C(=O)c2ccc(F)cc2)O1)NC1Cc2ccccc2C1,-1.0
CC(C)NC(=O)N(C)C[C@@H]1Oc2ccc(NC(=O)c3ccncc3)cc2C(=O)N([C@H](C)CO)C[C@H]1C,-15.9
C[C@@H]1CN([C@H](C)CO)C(=O)c2cccc(NS(=O)(=O)c3ccc(F)cc3)c2O[C@H]1CN(C)C(=O)Nc1ccccc1,-1.0
CO[C@@H]1CN(C)C(=O)c2cc(NC(=O)CC(F)(F)F)ccc2OC[C@H](C)N(C(C)=O)C[C@@H]1C,0.9
COCC(=O)N1CC[C@@H]2[C@H](CO)Nc3ccc(C#Cc4ccccc4)cc3[C@@H]21,-4.2
FC(F)(F)Oc1ccccc1C(c1nnnn1C1CCCC1)N1CCN(C/C=C/c2ccccc2)CC1 (stereo not given),5.4
CC(C)NC(=O)N(C)C[C@@H]1Oc2ccc(NC(=O)Nc3ccc(F)cc3)cc2CC(=O)N([C@H](C)CO)C[C@H]1C,-2.7
COc1ccccc1C(=O)Nc1ccc2c(c1)C(=O)N(C)[C@H]1CC[C@H](CC(=O)NCc3ccc(Cl)c(Cl)c3)O[C@@H]1CO2,-2.1
C[C@@H]1CN([C@H](C)CO)C(=O)c2cc(NC(=O)CCCN(C)C)ccc2O[C@H]1CN(C)S(C)(=O)=O,-2.9
O=C1CNC[C@@H]2[C@H](c3ccc(C#Cc4cccnc4)cc3)[C@@H](CO)N12,-5.1
CCCC#Cc1cnc2c(c1)C(=O)N([C@H](C)CO)C[C@@H](C)[C@H](CN(C)C(=O)C1CCC1)O2,-2.7
Cc1noc(C)c1C(=O)OCC(=O)NCc1ccccc1,-5.0
CCCC(=O)N1CCC1(C)C(=O)NS(=O)(=O)c1cccs1 (stereo not given),-0.8
CNC[C@H]1OCCCC[C@@H](C)Oc2ccc(N)cc2C(=O)N([C@H](C)CO)C[C@@H]1C,-3.2
O=C(Nc1cc(F)ccc1F)N1CC(=O)N2[C@H](CO)[C@@H](c3ccc(-c4ccccc4)cc3)[C@H]2C1,-2.9
Cc1noc(C)c1C(=O)N(C)C[C@H]1OCc2ccccc2-c2c(n(C)c3ccccc23)C(=O)N([C@@H](C)CO)C[C@H]1C,0.2
COc1ccc(NC(=O)N(C)C[C@H]2OCCCC[C@@H](C)Oc3ccc(NC(=O)CCC(F)(F)F)cc3C(=O)N([C@@H](C)CO)C[C@@H]2C)cc1,0.7
Cc1ccc(S(=O)(=O)N(C)C[C@@H]2Oc3c(NC(=O)C4CC4)cccc3C(=O)N([C@H](C)CO)C[C@@H]2C)cc1,-0.1
CCC(=O)Nc1ccc2c(c1)C(=O)N(C)[C@@H]1CC[C@H](CC(=O)NCC3CCCCC3)O[C@H]1CO2,0.1
OC[C@H]1[C@H](c2ccc(-c3cccnc3)cc2)[C@@H]2CN(Cc3ccccn3)CCCCN12,-15.6
CCCc1cn(CC[C@@H]2CC[C@H](NC(=O)C3CCCC3)[C@H](CO)O2)nn1,-2.6
CCC(=O)N1CCCC(C)(C(=O)Nc2ccc(OC(F)F)cc2)C1 (stereo not given),-2.1
COc1cccc(-c2cnc3c(c2)C(=O)N([C@H](C)CO)C[C@H](C)[C@H](CN(C)C(=O)Nc2ccc4c(c2)OCO4)O3)c1,4.8
CCS(=O)(=O)N1Cc2cc(C(=O)N(C)C)nc(-c3cccc(-c4ccc(C#N)cc4)c3)c2[C@@H]1CCO,1.4
C[C@H](CO)N1C[C@H](C)[C@@H](CN(C)Cc2ccncc2)Oc2ccc(NC(=O)c3ccncc3)cc2CC1=O,-2.5
C[C@@H]1CN([C@H](C)CO)C(=O)c2cc(NS(=O)(=O)c3ccc(Cl)cc3)ccc2O[C@H]1CN(C)CC1CC1,-0.9
Cc1ccc(S(=O)(=O)N2CCN(C(=O)COC(=O)CNC(=O)c3ccccc3F)CC2)c(C)c1,-4.9
C[C@H]1CN([C@@H](C)CO)S(=O)(=O)c2ccc(C#Cc3ccccc3)cc2O[C@H]1CN(C)C(=O)Cc1ccccn1,0.5
Cn1cnc(S(=O)(=O)N2C[C@H](O)COC[C@H]3O[C@H](CC(=O)NCc4ccc(F)cc4)CC[C@@H]32)c1,-2.7
CCS(=O)(=O)Nc1ccc2c(c1)C(=O)N(C)[C@H]1CC[C@H](CC(=O)N[C@@H]3CCN(Cc4ccccc4)C3)O[C@H]1CO2,0.1
CCS(=O)(=O)N1CC2(C1)[C@H](c1ccccc1)[C@H](CO)N2C(=O)C1CCC1,-1.3
Cc1noc(C)c1NC(=O)Nc1ccc2c(c1)C(=O)N([C@@H](C)CO)C[C@@H](C)[C@H](CN(C)S(=O)(=O)c1c(C)noc1C)OCCCC[C@@H](C)O2,-1.5
COc1cccc(CNC(=S)Nc2ccc3c(c2)c(=O)n(C)n3Cc2ccccc2)c1,-3.2
COc1ccc(-c2ccc3c(c2)[C@H]2[C@H](CCN2C(=O)C2CC2)[C@H](CO)N3C)cc1,-1.8
CCNC(=O)Nc1ccc2c(c1)C(=O)N(C)[C@@H]1CC[C@H](CC(=O)NC3CCCCC3)O[C@H]1CO2,-2.5

# Grouped by structure, the compounds so far containing a cyano group (3)
SMILES,MLL AF4-AF9 inh
CO[C@H]1CC[C@H]2CCOc3ccc(C#N)cc3C(=O)N(C)CC3(CCCCC3)CC(=O)N(C)C[C@H]1O2,-2.1
CC(C)NC(=O)N1[C@H](C#N)[C@@H](c2ccc(C#CC3CCCC3)cc2)[C@@H]1CO,-17.9
CCS(=O)(=O)N1Cc2cc(C(=O)N(C)C)nc(-c3cccc(-c4ccc(C#N)cc4)c3)c2[C@@H]1CCO,1.4

# Screens (PubChem BioAssay)
